MgrA DNA FP – alters Staphylococcus aureus MgrA binding to DNA. fluorescence polarization. inhibition, %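 (about 10 µg/mL by stock and volumes)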. 84,000 compounds, 0.13% hits. AID 602314;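 active = above 50% in either of two replicates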;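 note: 0% = protein plus DNA without compound and 100% = DNA alone without protein; higher means less MgrA bound to DNA so lower polarization; one replicate is shown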
S aureus helic – blocks Staphylococcus aureus DNA helicase | purified S. aureus helicase, fluorescence unwinding assay; about half of the hits fall short of the stated cut | inhibition, %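 (tested at about 80 µM)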 | 120,000 compounds, 0.05% hits;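 active = both duplicates at 50% or more, or one of them with a favoured structure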;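 note: 0% = mean of negative control wells and 100% = mean of positive control wells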
An asterisk follows results filed as active; / = no result given.

SMILES	MgrA DNA FP	S aureus helic
N#Cc1c(Nc2ccccc2)sc2c(N)nc(N)nc12	-1.4	2.0
Cn1ccnc1SCC(=O)NC1CCCc2ccccc21 (configuration not stated)	/	7.0
O=C(O)CCC(=O)NC1CCCCNC1=O (configuration not stated)	-1.1	/
Oc1c(Cl)cc(Cl)cc1C=Nc1ccc(Cl)cn1	2.4	/
Cc1ccc2c(CC(=O)NCC(=O)OCc3ccccc3)coc2c1	/	-11.0
Cc1c(C(=O)c2ccc3c(c2)OCCO3)oc2ccc(Cl)cc12	/	4.0
CC1CC(=O)N(CC(N)=O)c2ccccc2S1(=O)=O (configuration not stated)	2.7	16.0
CN(C)C(=O)COC(=O)c1ccccc1C(=O)c1ccccc1	/	-7.0
CN(C)c1c(N)c(=O)oc2ccccc12	/	-14.0
CC1CCC(C(C)C)C(OC(=O)CSC#N)C1 (configuration not stated)	1.1	3.0
CCn1c(SCC(=O)N(C)Cc2ccccc2)nc2ccccc21	/	-11.0
Cc1ccc(N(C(=O)Cn2nnc3ccccc32)C(C(=O)NCc2ccco2)c2cccnc2)cc1C (configuration not stated)	-1.8	20.0
Cc1ccc(N2C(=O)c3ccccc3C2=O)cc1	-0.2	4.0
Cc1cc2c(=O)n(CC(=O)Nc3ccc(F)cc3F)cnc2s1	-2.0	2.0
O=C(Cc1ccc2c(c1)OCCO2)Nc1ccc(OC(F)(F)F)cc1	/	16.0
NS(=O)(=O)c1ccc(-c2ccc(/C=N/O)o2)cc1	-2.2	/
Cn1c(=O)c(-[n+]2ccccc2)c([O-])c2ccccc21	/	12.0
O=C(Nc1ccc(Cl)cc1)C(F)(F)F	/	5.0
O=C1CCC2(C(=O)O)Sc3ccccc3N12 (configuration not stated)	-2.3	4.0
COCCn1c(N)c(-c2nc3ccccc3[nH]2)c(O)c1N=Nc1cc(OC)c(OC)c(OC)c1	/	-12.0

Some of the entries above in a different format.
Below each SMILES – MgrA DNA FP, S aureus helic
Cc1ccc(N2C(=O)c3ccccc3C2=O)cc1
→ -0.2, 4.0
Cc1cc2c(=O)n(CC(=O)Nc3ccc(F)cc3F)cnc2s1
→ -2.0, 2.0
O=C(Cc1ccc2c(c1)OCCO2)Nc1ccc(OC(F)(F)F)cc1
→ /, 16.0
NS(=O)(=O)c1ccc(-c2ccc(/C=N/O)o2)cc1
→ -2.2, /

(next part)
SMILES	MgrA DNA FP	S aureus helic
O=C(O)Cc1sc(-c2ccc(Cl)cc2)nc1O	6.7	/
OCCNc1nc(N2CCN(c3ccccc3)CC2)nc2ccccc12	-6.1	-6.0
CC1(C)COC(N2c3ccccc3Sc3ccccc32)=N1	/	-9.0
O=C(CCCn1c(=O)c2cccn2c2ccccc21)NC1CCCc2ccccc21 (configuration not stated)	-1.3	-2.0
COc1ccc(N(C)S(=O)(=O)c2c(C)noc2C)c(OC)c1	3.7	12.0
CCNc1ccc([N+](=O)[O-])cc1	0.8	/
CCCCc1nnc(SCC(=O)N2CCc3ccccc32)n1C	2.2	-6.0
CCCCNC(=O)N(C)C1CC2C=CC1C2 (configuration not stated)	-0.7	/
CCOC(=O)c1[nH]c(=O)[nH]c1CNc1ccccc1C#N	-3.4	-6.0
COc1ccc(Cn2c(CCC(=O)NCCC3=CCCCC3)nc3ncccc3c2=O)cc1	-2.5	-5.0
CC(=O)NC(Cc1ccc(OC(C)=O)cc1)C(=O)O (configuration not stated)	-0.5	/
CCc1ccc(NC(=O)CCCN2C(=O)CCC2=O)cc1	1.1	21.0
O=C(O)CC1(CC(=O)Nc2cccc3nsnc23)CCCCC1	0.3	/
O=CN/N=C/c1c(O)ccc2ccccc12	/	-67.0
Cc1nc(-c2ccccc2O)n[nH]1	-2.1	5.0
O=c1cc[nH]c2cccc(Cc3ccccc3)c12	3.3	14.0
COC(=O)c1c(NC(=O)CC2Nc3cc(C)c(C)cc3NC2=O)sc(C)c1C (configuration not stated)	25.2	-17.0
Cn1c2nc(-[n+]3ccc(C(=O)[O-])cc3)nc-2c(O)n(C)c1=O	-2.2	6.0
CCC1CCCCN1c1cc(C)nc2cc(-c3cc(OC)cc(OC)c3)nn12 (configuration not stated)	-2.2	16.0
CC(=O)Nc1ccc(O[C@@H]2O[C@H](CO)[C@@H](O)[C@H](O)[C@H]2NC(C)=O)cc1	/	18.0
COC(=O)CSc1nnc2n(Cc3ccc(C)cc3)c(=O)c3ccccc3n12	/	2.0
Cc1ccccc1CN1C=C(C(N)=O)C(C(F)(F)F)CC1 (configuration not stated)	/	-7.0
O=C(NCc1ccc(S(=O)(=O)NC2CCCCC2)s1)c1ccccc1	-2.5	/
CCc1c(C)nc2nc(NC(C)=O)[nH]n2c1=O	/	21.0
CC1=C(C#N)C(c2ccccc2C(F)(F)F)C2=C(O1)C(=O)CCC2 (configuration not stated)	-1.2	6.0
CC(C)CNC(=O)c1cc(-c2ccc(Br)cc2)on1	/	20.0
CN(C)C(=O)N(C)C1CCS(=O)(=O)C1 (configuration not stated)	3.1	8.0
Cc1cc(C(=O)CN(Cc2ccco2)S(=O)(=O)/C=C/c2ccccc2)c(C)n1C	/	6.0
FC(F)(F)c1cc(NCc2ccccc2)nc(-c2ccccn2)n1	-1.8	/
NNC(=S)Nc1ccc(-c2n[nH]c(=S)o2)cc1	4.9	/
Cc1nc2nc(SCC(=O)O)nn2c(C)c1C	/	11.0
CC(C)(C)OC(=O)N1CCNc2ccccc2C1	/	5.0
C=CCNC(=O)C1CCN(S(=O)(=O)c2cccc3nsnc23)CC1	/	12.0
Nc1ccccc1C(=O)NCCc1ccncc1	1.3	/
Cc1ccc2c(c1)NC(=O)C(CC(=O)NCCCN1CCN(c3cc(Cl)ccc3C)CC1)O2 (configuration not stated)	-0.5	13.0
CC(C)(C)NC(=O)CN1CCC(n2nnc3cc(F)ccc32)CC1	18.1	-4.0
COc1ccccc1C1CCN(Cc2c[nH]c3ccccc23)CC1	-0.4	/
COc1ccc(CN(C(=O)c2cc3sccc3n2C)C2CC(C)(C)NC(C)(C)C2)cc1	-0.2	-6.0
CCC(C)NC(=O)C1CCN(Cc2nc(-c3ccc(OC)c(OC)c3)no2)CC1 (configuration not stated)	/	8.0
N#CCCn1cc(/C=C2\N=C(c3ccccc3)OC2=O)c(-c2ccc(F)cc2)n1	/	5.0

Part of the list above in order of molecular weight, low to high.
SMILES	MgrA DNA FP	S aureus helic
Cc1nc2nc(SCC(=O)O)nn2c(C)c1C	/	11.0
COc1ccccc1C1CCN(Cc2c[nH]c3ccccc23)CC1	-0.4	/
CCC(C)NC(=O)C1CCN(Cc2nc(-c3ccc(OC)c(OC)c3)no2)CC1 (configuration not stated)	/	8.0

(cont.)
SMILES	MgrA DNA FP	S aureus helic
CN(C)c1ccc(C2Nc3ccccc3O2)cc1 (configuration not stated)	1.6	/
OCCn1c(SCc2ccccc2)nc2ccccc21	/	-11.0
COCCN1C(=O)c2ccccc2C(C(=O)NCc2ccco2)C1c1c[nH]c2ccccc12 (configuration not stated)	0.7	9.0
COC(=O)C(Cc1ccccc1)N=Cc1c(O)[nH]c(=O)[nH]c1=O (configuration not stated)	/	3.0
CCOC(=O)c1sc(=S)n(-c2ccc(OC)cc2)c1C	/	9.0
CN(CC(=O)NCCc1ccc(S(N)(=O)=O)cc1)c1ccccc1	/	-5.0
CC(CSc1ccc(Cl)cc1)C(=O)O (configuration not stated)	0.6	/
N#Cc1c(NC(=O)/C=C/c2ccco2)sc2c1CCCC2	/	0.0
N#Cc1c(/N=C/c2ccc3c(c2)OCO3)oc(-c2ccccc2)c1-c1ccccc1	8.0	-2.0
O=C(NNc1nc2ccccc2o1)c1cccc(Cl)c1	/	12.0

Profiles, looked up by structure. Order of screens: MgrA DNA FP, S aureus helic
CCNc1ccc([N+](=O)[O-])cc1 as listed: 0.8, /
CCC(C)NC(=O)C1CCN(Cc2nc(-c3ccc(OC)c(OC)c3)no2)CC1 (configuration not stated) as listed: /, 8.0
O=C(O)CCC(=O)NC1CCCCNC1=O (configuration not stated) as listed: -1.1, /
COc1ccccc1C1CCN(Cc2c[nH]c3ccccc23)CC1 as listed: -0.4, /

Copied from the list.
S aureus helic, CN(CC(=O)NCCc1ccc(S(N)(=O)=O)cc1)c1ccccc1 = -5.0
S aureus helic, OCCn1c(SCc2ccccc2)nc2ccccc21 = -11.0

Remaining list, next part.
SMILES	MgrA DNA FP	S aureus helic
C=CCc1c(CCC)nc(SCC2CC2)[nH]c1=O	-1.0	/
Cc1sc2nc3c4ccccc4c(NCC4CCCO4)nn3c(=O)c2c1C (configuration not stated)	5.3	8.0
COc1c(Br)cc([N+](=O)[O-])c(OC)c1C(N)=O	-2.5	/
CC(C)(C)c1cc(NC(=O)COC(=O)C2CC2)n(-c2ccccc2)n1	/	-4.0
CN(C)CCOC(=O)c1cc2ccccc2o1	-2.0	-1.0
O=C(c1ccccc1)c1nc2ccccc2[nH]1	4.1	8.0
CSCc1nnc(NC(=O)c2ccc(S(=O)(=O)N(C)Cc3ccccc3)cc2)o1	/	6.0
Cc1nccn1CC(O)Cn1c2ccccc2c2ccccc21 (configuration not stated)	-0.8	18.0
CC(Nc1ncccn1)C1CC2CCC1C2 (configuration not stated)	/	-5.0
CCOC(=O)Cc1c(C(=O)OCC)[nH]c(C)c1C(=O)OCc1ccccc1	-0.8	/
Cc1cc(Oc2c([N+](=O)[O-])cc(C(F)(F)F)cc2[N+](=O)[O-])ccc1Cl	-1.2	/
N=C1SCCN1CC(=O)c1ccc(O)cc1	/	-21.0
O=C(NCCc1ccccc1)c1noc2c1CCCCC2	-0.2	7.0
CCSc1nc(C)cc(COC)c1C#N	-3.8	18.0
CC(=O)OCCn1c(=O)c2ccccc2c2ccccc2c1=O	3.3	2.0
O=C(Cc1ccccc1)NCC(=O)OCc1ccccc1F	-0.8	14.0
COc1ccc(NC(=O)c2cccn(OCc3ccccc3)c2=O)cc1	1.7	11.0
CCCC12CN3CC(C)(CN(C1)C3c1c[nH]c3ccc(OC)cc13)C2=O (configuration not stated)	/	16.0
O=S(=O)(Nc1ccccc1Oc1ccccc1)c1ccc(-c2ccon2)s1	1.3	/
O=C1CCCCC1Sc1nnc2n(-c3ccccc3)c(=O)c3ccccc3n12 (configuration not stated)	/	3.0
Cc1ccc(CNC(=O)c2ccccc2N(C)S(C)(=O)=O)cc1	3.8	-8.0
N#Cc1cccnc1Br	/	9.0
O=C1c2ccccc2C(=O)N1c1nc2nc(-c3ccccc3)cc(=O)n2[nH]1	/	8.0
COc1ccc(S(=O)(=O)N(CC(N)=O)Cc2ccccc2)cc1C	7.1	13.0
O=C(/C=C/c1ccc(-c2ccc(F)cc2)o1)N1CCCCC1	-4.8	10.0
C=CCn1c2ccccc2c2nnc(SCC(=O)Nc3ccc(S(=O)(=O)Nc4onc(C)c4C)cc3)nc21	/	10.0
CCOC(=O)NN=C1c2ccccc2-c2ccccc21	-0.7	/
O=C(c1ccco1)N1CCCCCCC1	1.4	3.0
O=C(Cc1cccs1)Nc1nc(-c2ccccc2)cs1	-1.3	8.0
CC(Sc1ccc2c(c1)OCCO2)C(N)=O (configuration not stated)	/	6.0
CNC(=S)NN(c1ccccc1)c1ccccc1	/	4.0
CC(C(=O)N(C)Cc1ccccc1)n1ccc2cc(S(=O)(=O)N3CCCCCC3)ccc21 (configuration not stated)	/	-18.0
COC(=O)C12CC3CC(C1)C(=O)C(C3)C2	1.1	-22.0
O=C(COc1ccc2ccccc2c1)NN1CCCCC1	-2.1	25.0
O=C(Nc1c2c(nc3c1CCC3)CCCC2)C1CCCCC1	2.0	1.0
Cc1cc(C)n(C(=O)c2ccccc2C(=O)O)n1	0.0	3.0
CN(C(=O)Cn1c(=O)n(CCC(=O)NCCc2ccccc2)c(=O)c2ccccc21)C1CCCCC1	0.6	-13.0
c1ccc(-n2ncc3c2ncn2cnnc32)cc1	-0.9	-6.0
CN1C(=O)C2(NCCc3c2[nH]c2ccccc32)c2ccccc21 (configuration not stated)	-4.3	4.0
CCOC(=O)N1CCN(Cc2ccc(Cl)cc2)CC1	-0.2	5.0
CCC/C(O)=C1\C(=O)CC(C)(C)CC1=Nc1ccccc1OC	-1.2	6.0
CC(C)N(C(=O)Cn1cnc2ccccc21)c1ccccc1	/	-3.0
CC1CCc2sc(-c3nnc(SCC(=O)c4ccc(NS(C)(=O)=O)cc4)o3)cc2C1 (configuration not stated)	/	-14.0
O=C(C1Cc2ccccc2N1C(=O)c1ccccc1)N1CCCC1 (configuration not stated)	/	12.0
CC(SC(=S)N1CCOCC1)C(=O)O (configuration not stated)	3.2	10.0
Cc1cc2nc(N3CCCC(C(F)(F)F)C3)c3ccccc3n2n1 (configuration not stated)	/	-9.0
CCOC(=O)c1c(SC)nc2ccc(Cl)cc2c1Oc1ccccc1	0.0	/
CC1CCCCN1c1csc2ccccc2c1=O (configuration not stated)	/	-15.0
CCc1ccc(NC(=O)CNC(=O)Cn2ccc3ccccc3c2=O)cc1	1.3	5.0
CC1=C(C)C(=O)C(N2CCOCC2)=CC1=O	/	11.0

Following part.
SMILES	MgrA DNA FP	S aureus helic
CCOC(=O)N1CCC(NC(=O)c2ccc3c(c2)N(Cc2ccc(C)cc2)CCS3)CC1	/	4.0
COc1cc(C)c(S(=O)(=O)n2ccnc2)cc1C(C)C	1.8	-6.0
COc1ccc(OC)c(S(=O)(=O)NCc2nn(-c3ccccc3)nc2C)c1	-1.9	/
Fc1cccc(Nc2nc(Cl)nc(Cl)n2)c1	-4.2	1.0
N#Cc1nc(-c2ccccc2)c(-c2ccccc2)nc1C#N	-1.7	/
CCOC(=O)c1ccsc1NC(=O)c1ccccc1	/	16.0
Cc1nn(C)c(=O)c2noc(/C=C/c3ccc(C(F)(F)F)cc3)c12	1.8	/
C#CCn1c(=NC(=O)c2ccccc2)sc2cc(S(N)(=O)=O)ccc21	/	0.0
O=C(c1ccccc1)N(c1ccccn1)c1ccccn1	1.1	2.0
CCOc1ccc(Nc2nc(C)c([N+](=O)[O-])c(N(C)c3ccccc3)n2)cc1	1.8	/
CCC(=O)Oc1ccc2c(C)c(Cl)c(=O)oc2c1	/	-15.0
Nc1nonc1/C(=N/O)N1CCCC1	5.3	-3.0
CN(C(=O)CSc1nc(-c2ccccc2)cc(-c2ccco2)c1C#N)c1ccccc1	/	-21.0
N#CCc1ccc(NC(=O)CC2(CC(=O)O)CCCC2)cc1	-13.3	/

Source: PubChem BioAssay (ICCB-Longwood Screening Facility, Harvard Medical School)

The list is partial; rates above refer to the full screens.
